# Compound activity: PubChem BioAssay, Broad Institute
# Vaccinia inh: blocks a specific stage of Vaccinia orthopoxvirus infection, primary screen, cell-based, single point. Vaccinia-infected cells, mCherry/Venus stage reporter fluorescence; hits give low values; some inactives read as strong as hits. activity change (mCherry), % (concentration not given with the values). 0.01% of 89,000 active;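 active means mCherry past -33% and 40 or more points under the early reporter, replicates agreeing; inconclusive means past -33% without that gap or agreement; tested in A549 cells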;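 further: scaled between vehicle wells and reference inhibitor wells; 23 nL library stock went into each well; one replicate is shown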
# Vaccinia inh Venus: recorded beside Vaccinia inh, whose call it bears; activity change (Venus), %; measured here: Venus reporter, other viral stage;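 negative = less Venus signal; first of two replicates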
# The depositor's hits bear a star; ? = inconclusive; / = no result given. The list is partial, so the mix of outcomes need not match the whole.
(1) COc1ccc(S(=O)(=O)N(C)C[C@@H]2Oc3ccc(NC(=O)Nc4ccc(F)cc4)cc3C(=O)N([C@@H](C)CO)C[C@H]2C)cc1
(2) O=C(C[C@@H]1C[C@@H]2c3cc(NC(=O)Cc4ccncc4)ccc3O[C@@H]2[C@H](CO)O1)NCCc1ccccc1
(3) O=C(c1cccnc1)N1C[C@@H]2[C@H](c3ccccc31)[C@@H](CO)N2C(=O)Nc1ccccc1F
(4) Cc1noc(C)c1S(=O)(=O)N(C)C[C@@H]1OCc2cn(nn2)CCCC(=O)N([C@@H](C)CO)C[C@H]1C
(5) C[C@H](NC(=O)[C@H]1[C@H](CO)[C@H]2Cn3c(ccc(-c4ccncc4)c3=O)[C@H]2N1C)c1ccccc1
(6) COCCNC(=O)C[C@@H]1CC[C@H](NC(=O)NC2CCCCC2)[C@H](CO)O1
(7) CO[C@@H](CN(C)C(=O)c1ccc2c(c1)OCO2)[C@H](C)CN([C@H](C)CO)S(=O)(=O)c1ccccc1
(8) COc1ccc(S(=O)(=O)N(C)C[C@H]2Oc3ccc(NC(=O)NC4CCCCC4)cc3C(=O)N([C@H](C)CO)C[C@H]2C)cc1

Assay by compound | 1 | 2 | 3 | 4 | 5 | 6 | 7 | 8
Vaccinia inh Venus | -7.3 | -4.0 | 11.2 | 14.2 | 18.1 | -5.8 | 4.2 | /
Vaccinia inh | -8.1 | 2.1 | 9.7 | 13.4 | 17.0 | 1.4 | 7.1 | ?

(9) Cc1noc(C)c1NC(=O)N(C)C[C@H]1Oc2ncc(/C=C/c3ccccc3)cc2C(=O)N([C@@H](C)CO)C[C@H]1C
(10) CCCc1cn(CC[C@@H]2CC[C@@H](NC(=O)C3CCC3)[C@@H](CO)O2)nn1
(11) C[C@@H]1CN([C@H](C)CO)C(=O)Cc2cc(NC(=O)NC3CCCCC3)ccc2O[C@H]1CN(C)Cc1ccc(Cl)c(Cl)c1
(12) C[C@H]1CN([C@@H](C)CO)C(=O)Cc2cc(NC(=O)Cn3cnnn3)ccc2O[C@H]1CN(C)C(=O)Nc1ccc2c(c1)OCO2
(13) CN1C(=O)c2cc(NC(=O)NC3CCCC3)ccc2OC[C@@H]2O[C@@H](CC(=O)O)CC[C@H]21
(14) Cc1noc(C)c1NC(=O)Nc1ccc2c(c1)C(=O)N(C)[C@@H]1CC[C@H](CC(=O)N(C)C)O[C@@H]1CO2
(15) COc1cccc(S(=O)(=O)N2CC[C@@H]3[C@H](CO)Nc4ccc(C5=CCCCC5)cc4[C@@H]32)c1
(16) O=C(C[C@H]1C[C@H]2c3cc(NC(=O)c4ccc5c(c4)OCO5)ccc3O[C@H]2[C@@H](CO)O1)NC1CCCCC1

Assay by compound | 9 | 10 | 11 | 12 | 13 | 14 | 15 | 16
Vaccinia inh Venus | 6.5 | -2.8 | -6.7 | 1.0 | 1.8 | 3.5 | -7.4 | 5.0
Vaccinia inh | -4.5 | -5.9 | -24.3 | 5.9 | -8.4 | 10.1 | -4.6 | 2.8

(17) CCNC(=O)[C@H]1[C@H](CO)[C@H]2Cn3c(cccc3=O)[C@H]2N1C(=O)CC1CC1
(18) O=C(Nc1ccccc1F)N[C@H]1CC[C@H](CCNC(=O)C2CCOCC2)O[C@@H]1CO
(19) C[C@@H]1CN([C@H](C)CO)C(=O)c2cc(-c3ccc(F)cc3)cnc2O[C@@H]1CN(C)C(=O)c1ccccn1
(20) CC(C)CC#Cc1ccc([C@H]2[C@H]3CN(C(=O)CN4CCOCC4)CC(=O)N3[C@H]2CO)cc1
(21) Cc1cccc(-c2ccc([C@H]3[C@@H](CO)N4CCCCN(S(=O)(=O)c5cccs5)C[C@H]34)cc2)c1
(22) CCC(=O)N1C[C@H]2[C@@H](c3ccccc31)[C@@H](CO)N2Cc1ccccc1F
(23) COc1ccc(NC(=O)Nc2ccc3c(c2)C(=O)N([C@H](C)CO)C[C@H](C)[C@@H](CN(C)Cc2ccc4c(c2)OCO4)O3)cc1
(24) O=C(C[C@H]1C[C@H]2c3cc(NC(=O)Nc4ccccc4F)ccc3O[C@H]2[C@@H](CO)O1)NCc1cc(F)ccc1F

Assay by compound | 17 | 18 | 19 | 20 | 21 | 22 | 23 | 24
Vaccinia inh Venus | -1.4 | 5.8 | 1.4 | -7.1 | / | 8.8 | -0.9 | 2.4
Vaccinia inh | -4.6 | 6.2 | 1.8 | -12.7 | ? | 10.7 | -11.1 | 6.7

(25) COc1ccc2c3c(n(C)c2c1)[C@@H](CO)N(Cc1ccc2c(c1)OCO2)CC31CCN(C(C)=O)CC1
(26) O=C(NC[C@@H]1[C@H](c2ccccc2)[C@H](CO)N1CC1CCCC1)C1CC1
(27) COc1cccc(C#Cc2cnc3c(c2)C(=O)N([C@H](C)CO)C[C@H](C)[C@H](CN(C)C(=O)C2CC2)O3)c1
(28) O=C(NC1CCCCC1)N[C@@H]1CC[C@@H](CCNS(=O)(=O)c2ccc(Cl)cc2)O[C@@H]1CO
(29) C[C@@H]1CCCCO[C@H](CN(C)Cc2ccc3c(c2)OCO3)[C@@H](C)CN([C@H](C)CO)C(=O)c2cc(NS(=O)(=O)c3ccccc3)ccc2O1
(30) C[C@@H]1CN([C@@H](C)CO)C(=O)Cc2cc(N(C)C)ccc2O[C@H]1CN(C)Cc1ccc(C(F)(F)F)cc1
(31) O=C(C1CCOCC1)N1CC(=O)N2[C@H](C1)[C@@H](c1ccc(-c3cccnc3)cc1)[C@@H]2CO
(32) CO[C@H]1CN(C)C(=O)c2cc(NC(=O)NC(C)C)ccc2OC[C@H](C)N(S(C)(=O)=O)C[C@H]1C

Assay by compound | 25 | 26 | 27 | 28 | 29 | 30 | 31 | 32
Vaccinia inh Venus | 9.1 | 5.9 | -11.0 | -0.4 | -2.2 | / | 21.9 | 11.9
Vaccinia inh | 9.2 | -0.8 | 6.2 | -4.1 | 2.0 | ? | 26.5 | 11.5

(33) C[C@H]1CN([C@@H](C)CO)S(=O)(=O)c2ccc(-c3ccc(F)cc3)cc2O[C@H]1CN(C)C(=O)c1ccccc1F
(34) O=C(C1=C[C@@H](c2ccc(Br)cc2)C[C@@H](OCc2ccc(CO)cc2)O1)N1CCOCC1
(35) C[C@H](O)C#Cc1ccc([C@H]2[C@@H](CO)N3CCCCN(S(=O)(=O)Cc4ccccc4)C[C@@H]23)cc1
(36) Cc1nn(C)cc1NC(=O)C[C@@H]1CC[C@@H]2[C@H](COc3ccc(NC(=O)c4cccc(F)c4)cc3C(=O)N2C)O1
(37) C[C@H](NC(=O)C[C@H]1C[C@H]2c3cc(NC(=O)CN(C)C)ccc3O[C@H]2[C@H](CO)O1)c1ccccc1
(38) CS(=O)(=O)N1CC(=O)N2[C@H](CO)[C@@H](c3ccc(C#CC4CCCC4)cc3)[C@@H]2C1
(39) O=C(CCN1CCCCC1)NCC[C@@H]1CC[C@@H](NS(=O)(=O)c2cccc(F)c2)[C@@H](CO)O1
(40) O=C(C[C@@H]1C=C[C@H](NC(=O)c2ccccn2)[C@H](CO)O1)NCc1cccc(F)c1

Assay by compound | 33 | 34 | 35 | 36 | 37 | 38 | 39 | 40
Vaccinia inh Venus | / | 2.8 | 6.4 | 7.4 | 9.6 | -15.7 | 1.8 | 2.2
Vaccinia inh | ? | 4.2 | -2.9 | 0.8 | 15.3 | -5.0 | -7.3 | 1.5

(41) C[C@@H]1CN([C@@H](C)CO)C(=O)c2cc(NC(=O)Nc3ccc(F)cc3)ccc2O[C@@H]1CN(C)Cc1ccc2c(c1)OCO2
(42) CCCN(C)C[C@@H]1Oc2cc(C#Cc3cccnc3)ccc2S(=O)(=O)N([C@H](C)CO)C[C@@H]1C
(43) COc1ccc(NC(=O)NC[C@H]2CC[C@H]3[C@H](CN3Cc3ccccc3C(=O)O)O2)cc1
(44) C[C@@H]1CN([C@H](C)CO)S(=O)(=O)c2ccc(C#Cc3cccc(F)c3)cc2O[C@@H]1CN(C)C
(45) CCC(=O)N1CCC2(CC1)CN(C(=O)CN1CCOCC1)[C@H](CO)c1c2c2ccc(OC)cc2n1C
(46) CO[C@H]1CN(C)C(=O)c2cc(NC(=O)C3CCOCC3)ccc2OC[C@H](C)N(C)C[C@H]1C
(47) CCCC(=O)Nc1ccc2c(c1)OC[C@@H](C)N(Cc1ccccn1)C[C@@H](C)[C@@H](OC)CN(C)C2=O
(48) C[C@@H]1CN([C@@H](C)CO)C(=O)c2cc(C#Cc3ccccc3)cnc2O[C@H]1CN(C)C(=O)C1CC1

Assay by compound | 41 | 42 | 43 | 44 | 45 | 46 | 47 | 48
Vaccinia inh Venus | / | -3.2 | 2.2 | / | -0.6 | 5.6 | 13.1 | -3.2
Vaccinia inh | ? | -0.4 | -2.6 | ? | 3.5 | 3.1 | 13.1 | 3.4

(49) CS(=O)(=O)N1CC(=O)N2[C@H](C1)[C@H](c1ccc(C#CCC3CCCC3)cc1)[C@@H]2CO
(50) C[C@H](CO)N1C[C@H](C)[C@H](CN(C)Cc2ccncc2)Oc2ccc(NC(=O)CCN3CCOCC3)cc2C1=O
(51) O=C(C[C@H]1C[C@H]2c3cc(NC(=O)C4CCOCC4)ccc3O[C@H]2[C@H](CO)O1)NCc1ccccn1
(52) COc1ccccc1NC(=O)N[C@H]1CC[C@@H](CC(=O)N2CCC(Cc3ccccc3)CC2)O[C@@H]1CO
(53) N#C[C@H]1[C@@H](c2ccccc2-c2ccccc2F)[C@H](CO)N1C(=O)C1CCOCC1
(54) O=C(C[C@@H]1C=C[C@H](NC(=O)CC2CC2)[C@@H](CO)O1)NCc1ccc(-c2ccccc2)cc1
(55) CN(C)CC(=O)N[C@H]1CC[C@H](CCn2cc(C3CCCCC3)nn2)O[C@H]1CO
(56) COc1ccccc1C(=O)Nc1ccc2c(c1)C(=O)N(C)C[C@H](OC)[C@H](C)CN(C(C)=O)[C@H](C)CO2

Assay by compound | 49 | 50 | 51 | 52 | 53 | 54 | 55 | 56
Vaccinia inh Venus | / | -1.4 | 11.2 | -20.5 | -5.2 | 2.5 | 7.0 | 8.1
Vaccinia inh | ? | 14.5 | 11.0 | -29.9 | -9.9 | 3.3 | -8.0 | 10.2

(57) C[C@@H]1CN([C@@H](C)CO)C(=O)c2cc(NS(C)(=O)=O)ccc2O[C@H]1CN(C)CC1CCCCC1
(58) C[C@@H]1CN([C@@H](C)CO)C(=O)c2cc(-c3ccc(F)cc3)cnc2O[C@@H]1CN(C)C(=O)Cc1ccccc1
(59) CNC[C@H]1Oc2c(N)cccc2C(=O)N([C@H](C)CO)C[C@H]1C
(60) CO[C@@H]1CN(C)C(=O)c2ccc(NC(=O)c3cc(C)on3)cc2OC[C@@H](C)N(C)C[C@@H]1C
(61) COc1ccc(S(=O)(=O)N(C)C[C@@H]2Oc3ccc(NS(=O)(=O)c4cn(C)cn4)cc3CC(=O)N([C@H](C)CO)C[C@H]2C)cc1
(62) O=C(C[C@@H]1C=C[C@@H](NC(=O)C2CC2)[C@H](CO)O1)Nc1nccs1
(63) COc1ccc(-c2ccc([C@@H]3[C@H](C#N)N(C(=O)C4CCCC4)[C@H]3CO)cc2)cc1
(64) CNC[C@H]1OCCCC[C@@H](C)Oc2ccc(NS(=O)(=O)c3ccccc3)cc2C(=O)N([C@@H](C)CO)C[C@@H]1C

Assay by compound | 57 | 58 | 59 | 60 | 61 | 62 | 63 | 64
Vaccinia inh Venus | -22.0 | -14.7 | 4.4 | 10.9 | 7.5 | 10.4 | -0.2 | 6.4
Vaccinia inh | -31.5 | -25.3 | -6.9 | 7.0 | 10.8 | 2.2 | -16.8 | 0.5

# Reformatted: two of the compounds above.
59. CNC[C@H]1Oc2c(N)cccc2C(=O)N([C@H](C)CO)C[C@H]1C
  Vaccinia inh Venus: 4.4; Vaccinia inh: -6.9

60. CO[C@@H]1CN(C)C(=O)c2ccc(NC(=O)c3cc(C)on3)cc2OC[C@@H](C)N(C)C[C@@H]1C
  Vaccinia inh Venus: 10.9; Vaccinia inh: 7.0

# Among those listed so far, these contain an aryl methoxy group:
(1) COc1ccc(S(=O)(=O)N(C)C[C@@H]2Oc3ccc(NC(=O)Nc4ccc(F)cc4)cc3C(=O)N([C@@H](C)CO)C[C@H]2C)cc1
(8) COc1ccc(S(=O)(=O)N(C)C[C@H]2Oc3ccc(NC(=O)NC4CCCCC4)cc3C(=O)N([C@H](C)CO)C[C@H]2C)cc1
(15) COc1cccc(S(=O)(=O)N2CC[C@@H]3[C@H](CO)Nc4ccc(C5=CCCCC5)cc4[C@@H]32)c1
(23) COc1ccc(NC(=O)Nc2ccc3c(c2)C(=O)N([C@H](C)CO)C[C@H](C)[C@@H](CN(C)Cc2ccc4c(c2)OCO4)O3)cc1
(25) COc1ccc2c3c(n(C)c2c1)[C@@H](CO)N(Cc1ccc2c(c1)OCO2)CC31CCN(C(C)=O)CC1
(27) COc1cccc(C#Cc2cnc3c(c2)C(=O)N([C@H](C)CO)C[C@H](C)[C@H](CN(C)C(=O)C2CC2)O3)c1
(43) COc1ccc(NC(=O)NC[C@H]2CC[C@H]3[C@H](CN3Cc3ccccc3C(=O)O)O2)cc1
(45) CCC(=O)N1CCC2(CC1)CN(C(=O)CN1CCOCC1)[C@H](CO)c1c2c2ccc(OC)cc2n1C
(52) COc1ccccc1NC(=O)N[C@H]1CC[C@@H](CC(=O)N2CCC(Cc3ccccc3)CC2)O[C@@H]1CO
(56) COc1ccccc1C(=O)Nc1ccc2c(c1)C(=O)N(C)C[C@H](OC)[C@H](C)CN(C(C)=O)[C@H](C)CO2

Assay by compound | 1 | 8 | 15 | 23 | 25 | 27 | 43 | 45 | 52 | 56
Vaccinia inh Venus | -7.3 | / | -7.4 | -0.9 | 9.1 | -11.0 | 2.2 | -0.6 | -20.5 | 8.1
Vaccinia inh | -8.1 | ? | -4.6 | -11.1 | 9.2 | 6.2 | -2.6 | 3.5 | -29.9 | 10.2

(61) COc1ccc(S(=O)(=O)N(C)C[C@@H]2Oc3ccc(NS(=O)(=O)c4cn(C)cn4)cc3CC(=O)N([C@H](C)CO)C[C@H]2C)cc1
(63) COc1ccc(-c2ccc([C@@H]3[C@H](C#N)N(C(=O)C4CCCC4)[C@H]3CO)cc2)cc1

Assay by compound | 61 | 63
Vaccinia inh Venus | 7.5 | -0.2
Vaccinia inh | 10.8 | -16.8
